# Assay outcomes (PubChem)
# UCH37 DUB inh: human UCH37 deubiquitinating enzyme inhibition; hit rate 0.33% among 330,000; purified proteasome/UCH37, Ub-AMC cleavage fluorescence; inhibition, % (no concentration beside the values); Q9Y5K5; AID 588478;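 active = mean of two replicates above 20%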;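 note: 0% = compound-free wells with enzyme and 100% = wells lacking proteasome; stock transfer was 100 nL into about 20 µL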
# Target sequence (Q9Y5K5 whole entry, looked up): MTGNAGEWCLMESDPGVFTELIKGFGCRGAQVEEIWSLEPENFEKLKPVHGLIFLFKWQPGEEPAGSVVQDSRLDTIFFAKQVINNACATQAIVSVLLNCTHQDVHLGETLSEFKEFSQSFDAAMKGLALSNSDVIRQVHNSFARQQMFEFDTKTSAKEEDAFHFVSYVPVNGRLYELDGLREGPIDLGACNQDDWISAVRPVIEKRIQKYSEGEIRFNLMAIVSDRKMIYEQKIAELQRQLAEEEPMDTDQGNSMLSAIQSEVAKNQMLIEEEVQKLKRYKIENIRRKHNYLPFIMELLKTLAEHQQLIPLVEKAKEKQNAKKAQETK
#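 Schedule: 30 min plus 25 min, room temperature / Material: human UCH37 within purified proteasomes / Technique: AMC fluorescence intensity at 355/460 nm / Buffer or medium: pH 7.4 Tris-HCl (50 mM) with ovalbumin, ATP-MgCl2, DTT / Controls: wells without proteasome as full block, compound-free enzyme plus substrate as uninhibited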
# E coli growth: blocks Escherichia coli growth | OD600 absorbance (no concentration beside the values) | AID 1053175 | OD600, 23 h; active compounds read low | hit rate 0.21% among 330,000;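 active = OD600 absorbance below the run mean of sample wells minus 3.6 SD, in any replicate, cut at about 0.56 in these data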;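 note: stock transfer was 300 nL into about 60 µL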
# * hit, by the source's call; i = inactive. This is a subset; rates above refer to the full screens.
SMILES	E coli growth	UCH37 DUB inh
CN(C)N=Cc1ccc(Sc2ccccc2[N+](=O)[O-])o1	0.69	2.9
CC(=O)NC(=NOCc1ccc(Br)cc1)c1nonc1NC(C)=O	0.62	2.3
NC(=NN=Cc1cccc([N+](=O)[O-])c1)c1nonc1N	0.59	2.2
Cc1[nH]c(=O)[nH]c(=O)c1C=NNC(=O)CCCCCNC(=O)OC(C)(C)C	0.64	5.4
Cc1ccc(C=NN2CCN(c3ccccc3)CC2)cc1	0.74	0.8
CCOC(=O)NN=Cc1ccc(OC/C=C/c2ccccc2)c(OC)c1	0.72	-2.0
CC(=NNC(=O)c1ccn(C)n1)c1cccc(NC(=O)c2ccncc2)c1	0.66	4.2
CN(C)Cc1c(C(=O)NN=Cc2cccnc2)nnn1-c1nonc1N	0.66	0.8
Cc1cccc2cc(C=NNC(=O)c3ccncc3)c(Cl)nc12	0.64	-15
CC1CC(=NNc2ccc(S(N)(=O)=O)cc2[N+](=O)[O-])CC(C)(C)C1 (stereo not drawn)	0.64	2.2
COCCCn1c(=C(C#N)C(=O)NC(C)C)sc(=Cc2ccccc2OC(F)F)c1=O	0.64	-12
C[N+](C)(C)CCCNC(=O)c1ccc(C=NO)nc1	0.67	-0.6
CC(=NNC(=O)c1c(C)nc2ccccn12)c1ccco1	0.68	9.2
COc1c(C=NNC(=O)c2ccncc2)c(CCN(C)C(C)=O)cc2c1OCO2	0.67	5.6
CC(CC(=O)Nc1ccc(Cl)cn1)=NNC(=O)Cc1cccs1	0.71	6.4
O=C(NN=Cc1ccc2c(c1)OCO2)c1ccc(NC(=O)c2ccccc2Cl)cc1	0.68	-71
Cn1nccc1C=NNC(=O)c1ccc(Cl)cc1	0.71	7.0
CCOC(=O)c1ccc(NC(=NS(=O)(=O)c2ccccc2)c2ccccc2)cc1	0.59	1.9
O=C(NN=Cc1ccc(OC(=O)c2ccc([N+](=O)[O-])cc2)cc1)c1cccnc1	0.72	4.0
COc1ccc(-c2nn(-c3ccccc3)cc2C=NO)cc1	0.67	-0.9
CC(=NNC(=O)c1nc(C)cc(C)n1)c1ccccc1	0.72	3.6
O=[N+]([O-])c1ccc(NN=C/C=C/c2ccco2)cc1	0.63	6.8
Cc1cccc(C=NNC(=O)c2ccncc2)n1	0.66	3.1
Cc1ccc(C=NNC(=O)c2nnn(-c3nonc3N)c2-c2cccs2)cc1	0.7	-3.5
NC(=NO)c1ccc(NC(=O)c2cccs2)cc1	0.69	3.1
O=C(O)COc1ccccc1C=NNC(=O)c1cc(-c2ccc(Cl)cc2)nc2ccccc12	0.7	6.1
CC(=O)C(=NNc1ccc(Cl)cc1Cl)Sc1cccc2cccnc12	0.75	3.2
COc1cc(C=NNC(=S)Nc2cccnc2)cc(OC)c1O	0.68	4.6
COc1ccc(C=NS(=O)(=O)c2cccs2)cc1	0.71	1.9
O=C(NN=Cc1ccc[nH]1)c1cccnc1	0.67	14

# Six entries from above, set out differently.
# Below each SMILES: E coli growth	UCH37 DUB inh
- O=C(NN=Cc1ccc[nH]1)c1cccnc1
    0.67	14
- COc1ccc(C=NS(=O)(=O)c2cccs2)cc1
    0.71	1.9
- NC(=NO)c1ccc(NC(=O)c2cccs2)cc1
    0.69	3.1
- COc1cc(C=NNC(=S)Nc2cccnc2)cc(OC)c1O
    0.68	4.6
- CC(=NNC(=O)c1nc(C)cc(C)n1)c1ccccc1
    0.72	3.6
- Cc1ccc(C=NNC(=O)c2nnn(-c3nonc3N)c2-c2cccs2)cc1
    0.7	-3.5

# The results go on.
SMILES	E coli growth	UCH37 DUB inh
CC(C)C1S/C(=N/N=Cc2ccco2)NC1=O (stereo not drawn)	0.72	13
Cc1ccc(-c2cc(-c3ccccc3O)nc(NN=Cc3cccnc3)n2)cc1	0.69	1.4
O=C(CN(Cc1ccc(Cl)c(Cl)c1)S(=O)(=O)c1ccccc1)NN=Cc1ccc2c(c1)OCO2	0.71	0.2
CC(C)(C)c1ccc(-c2n[nH]c(=S)n2N=Cc2ccncc2)cc1	0.66	3.3
Cc1ccc(C=NNC(=O)Cc2cccn2C)s1	0.69	4.4
CCCOc1ccc(C=NNC(=O)c2ccc3c(c2)OCO3)c(OCCC)c1	0.59	2.2
CCOc1cc(C=NNC(=O)c2c(-c3ccccc3)noc2C)ccc1O	0.69	1.6
O=C(NN=Cc1ccc(O)cc1)c1nc(-c2ccccc2)n(-c2ccccc2)n1	0.72	5.8
Cc1ccc(-c2nnnn2C2CC(=NNC(N)=S)C3OCC2O3)cc1 (stereo not drawn)	0.68	3.0
COc1ccc(S(=O)(=O)N(CCc2ccccc2)CC(=O)NN=Cc2ccc3c(c2)OCO3)cc1	0.71	5.5

# Structural class, the entries above containing a tert-butyl group (2)
SMILES	E coli growth	UCH37 DUB inh
Cc1[nH]c(=O)[nH]c(=O)c1C=NNC(=O)CCCCCNC(=O)OC(C)(C)C	0.64	5.4
CC(C)(C)c1ccc(-c2n[nH]c(=S)n2N=Cc2ccncc2)cc1	0.66	3.3

# Next records follow:
SMILES	E coli growth	UCH37 DUB inh
COc1ccc(N2C(=O)C(CC(=O)O)SC2=NN=Cc2cccs2)cc1 (stereo not drawn)	0.7	9.6
CCNC(=S)NN=Cc1c(C)nn(-c2cccc(Cl)c2)c1Cl	0.76	1.2
Cc1ccc(C=NNC(=O)c2nnn(-c3nonc3N)c2-c2ccccc2)o1	0.71	-18
CCOc1ccc(Br)cc1C(=O)NN=Cc1cccc(C)n1	0.67	1.4
COc1ccc(C(C)=NN2CCCCC2)c(O)c1	0.67	2.7
NC(=NN=Cc1ccc(Br)o1)c1nonc1N	0.63	14
CCCCCCc1nc2ccccc2c(=O)n1NC(=O)c1c(O)c2cccc3c2n(c1=O)CCC3	0.71	-3.1
COc1cc(C=NO)cc(Br)c1OS(=O)(=O)c1ccc(C)cc1	0.7	7.3
O=C(NN=Cc1cccc(Oc2ccccc2)c1)c1ccc(O)cc1O	0.7	-50
CCN(CC)c1ccc(C=NNC(=O)CCC(=O)NCc2ccccc2)c(O)c1	0.67	-22
ON=C(c1ccccc1)C(O)c1ccccc1 (stereo not drawn)	0.67	1.2
NC(=O)c1ccc(C(=O)NN=Cc2cccc(Oc3ccccc3)c2)cc1	0.73	-8.6
CCOc1ccc2ccccc2c1C=NNC(=O)OC	0.57	-31
CC(CC(=O)Nc1c(C)cc(C)cc1C)=NNC(=O)Cc1ccccc1	0.64	2.6
Cc1nn(-c2ccccc2Cl)c(Cl)c1C=NNc1nc2ccccc2s1	0.76	3.8
Cn1cc(Br)c(C(=O)NN=Cc2cc3c(cc2Cl)OCO3)n1	0.73	-3.0
COc1cc(Br)cc(Br)c1OCC(=O)NN=Cc1c(C)n(C)n(-c2ccccc2)c1=O	0.73	0.9
Cc1n[nH]c(=S)n(N=Cc2cccs2)c1=O	0.66	11
Cc1cc(=O)[nH]c(NN=Cc2ccc(F)cc2)n1	0.66	8.6
O=C(NC(C(=O)NN=Cc1ccccc1)c1n[nH]c(=O)c2ccccc12)c1ccccc1 (stereo not drawn)	0.77	2.2
CC1(C)Cc2ccccc2C(NN=Cc2ccc([N+](=O)[O-])cc2)=N1	0.68	-2.0
COc1ccc(C=NNC(=O)c2c(C)nc3ccc(Br)cn23)cc1OC	0.67	-18
Cc1ccccc1C(=O)NN=Cc1cccc2ccccc12	0.65	4.2
CCn1ncc(C=NNC(=O)c2ccc3c(c2)OCO3)c1C	0.74	4.3
O=C(NN=Cc1cc([N+](=O)[O-])ccc1O)C1CC1	0.67	12
COc1cc(C=NNc2nn3cnnc3c3ccccc23)ccc1O	0.72	5.8
O=c1nc(N2CCOCC2)nc(NN=Cc2ccc3c(c2)OCO3)[nH]1	0.55	2.4
Cn1cccc1CC(=O)NN=Cc1ccco1	0.67	2.0
COc1cc(C=NNC(=O)c2ccncc2)ccc1OC(=O)c1ccco1	0.68	5.2
CC(=O)Nc1ccc(S(=O)(=O)N(C)CC(=O)NN=Cc2cccc(O)c2)cc1	0.69	0.8
COc1ccccc1C(=O)ON=C(c1ccncc1)c1ccc([N+](=O)[O-])cc1	0.65	2.4
COc1ccc(C(C)=NNC(=O)CNC(=O)C2COc3ccccc3O2)c(OC)c1 (stereo not drawn)	0.65	3.0
Cc1ccc(CN2CCN(N=Cc3ccc(N(C)C)cc3)CC2)cc1	0.67	-1.6
CCOc1cc(C=NNC(=O)c2cccnc2)ccc1OCC(=O)N(C)C	0.69	2.9
C=C(C)C1CCC(C)=C1CC(C)(C)C=Nn1cnnc1 (stereo not drawn)	0.69	42*
Nc1nonc1-n1nnc(C(=O)NN=Cc2cccc(F)c2)c1-c1ccccc1	0.69	5.2
ClC(Cl)(Cl)c1nc(NN=Cc2ccncc2)c2ccccc2n1	0.64	3.7
Clc1cccc(CONC=Nc2ncnc3sccc23)c1	0.7	-1.8
CCOc1cc(C=NO)cc(Br)c1OCC	0.68	5.9
COc1ccc(CCNC(=O)CC(C)=NNC(=O)COc2ccc(C)cc2Br)cc1OC	0.69	1.7
CC(=NNC(=S)Nc1ccc(C)cc1)c1cc2ccccc2o1	0.74	1.8
Cc1cc(C)n2nc(C(=O)NN=Cc3cccs3)nc2n1	0.66	12
CCOC(=O)C1=C(C)N=c2sc(=Cc3ccc(OC(C)=O)cc3)c(=O)n2C1/C=C/c1ccccc1 (stereo not drawn)	0.79	3.8
CCN=c1scc(C)n1N=Cc1cc(Br)c(O)c(OC)c1	0.69	-8.4
Cc1c(C=NNC(=O)c2cccnc2)c2ccccc2n1Cc1ccccc1	0.69	-18
Cc1ncc(CO)c(C=NNC(=O)c2ccoc2C)c1O	0.64	-404
Cc1ccc(S(=O)(=O)N=C(CN2CCCCC2)N2CCOCC2)cc1	0.65	2.8
Cn1cccc1C=NN1CCN(Cc2cccc3ccccc23)CC1	0.68	4.8
Cc1csc(C(=NO)c2csc(C)n2)n1	0.7	1.5
COc1cccc(C=NNC(=O)CNC(=O)COc2ccccc2)c1O	0.68	-0.4

# Additional compounds:
SMILES	E coli growth	UCH37 DUB inh
CC(=NNC(=O)c1cc(Br)ccc1O)c1ccccn1	0.72	4.6
O=C(NN=Cc1cccnc1)c1ccc(Cl)c(Cl)c1	0.64	4.7
CCOc1cc(C=NNC(=O)c2cccnc2)cc(Br)c1OCC(N)=O	0.69	8.0
COc1ccc(C=Nn2c(N)c(S(=O)(=O)c3cccs3)c3nc4ccccc4nc32)cc1OC	0.74	-97
CCOc1ccc2ccccc2c1C=NNC(=O)c1cc(C)[nH]n1	0.66	-1.1
Cc1c(C(C)(C)C)sc(=NS(=O)(=O)c2ccccc2)n1C	0.64	0.2
COc1cc(OC)c(OC)cc1C=Nn1c(C)nnc1C	0.76	-14
Cc1cccc(-n2c(C)cc(C=NNC(=O)c3ccc(CN4CCOCC4)cc3)c2C)c1	0.73	4.3
COc1ccc(OC)c(C=NNC(=O)c2cc3c(ccc4ccccc43)o2)c1	0.75	i
Cn1c(SCC(=O)NN=Cc2ccccn2)nnc1-c1ccccc1	0.61	3.9
COC(=O)CCC(C)=NNc1ccc([N+](=O)[O-])cc1[N+](=O)[O-]	0.68	7.9
CN(N=Cc1ccc2c(c1)OCO2)c1nc(N2CCOCC2)nc(N2CCOCC2)n1	0.66	9.7
CC(CC(=O)NC1CCCCCC1)=NNC(=O)c1cnccn1	0.69	3.1
CCN(CC)c1ccc(C=NNC(=O)CNC(=O)c2cccs2)cc1	0.63	-141
CC(=NNC(=O)CSc1nc2ccccc2n1C)c1ccc(O)cc1	0.65	1.7
O=C(CN1CCCCCC1)NN=Cc1cccc(Cl)c1Cl	0.71	8.1
O=C(CCC(=O)Nc1cc(C(F)(F)F)ccc1Cl)NN=Cc1cc([N+](=O)[O-])ccc1O	0.67	3.1
Cc1cc(C)nc(N=C(NC(=O)C(C)(C)C)Nc2ccccc2)n1	0.67	5.4
N#Cc1ccc(C=NNC(=O)CCc2ccc(S(=O)(=O)N3CCOCC3)cc2)cc1	0.69	0.1
NC(=NOCC(=O)Nc1cccc2ccccc12)c1nonc1N	0.64	-0.6
CC(C(O)=C(C#N)c1nc2ccccc2n1C)N1C(=O)c2ccccc2C1=O (stereo not drawn)	0.72	0.2
Cc1ccsc1C=NNC(=O)C(=O)NCC(C)C	0.67	10
CC(=NNC(=O)CNC(=O)c1ccccc1F)c1ccc2c(c1)CCCC2	0.67	1.1
CC(=NNC(=O)COc1ccc(C(C)(C)C)cc1)c1cc2ccccc2o1	0.7	4.1
O=C(CCC(=O)Nc1ccc(F)cc1)NN=Cc1ccccc1	0.63	-0.8
COc1ccccc1C=NNC(=S)NCc1ccco1	0.68	4.2
C/C(C=NNC(=O)Cc1cccn1C)=C\c1ccccc1	0.65	1.9
CC(=NNC(=O)NC1CCCCC1)c1ccc(Cl)s1	0.71	-0.3
O=C(NN=C/C=C\c1ccccc1[N+](=O)[O-])c1cccs1	0.72	6.3
COc1ccc(Nc2nc(NCc3ccco3)nc(NN=Cc3ccccc3F)n2)cc1	0.69	1.6
O=C(NN=Cc1cccc(O)c1)NN=Cc1cccc(O)c1	0.66	4.4
O=C(NN=Cc1ccc2c(c1)OCO2)c1sc2cccc(Cl)c2c1Cl	0.76	-27
